Marburg entry: qHTS for Inhibitors of binding or entry into cells for Marburg Virus | Potency, µM (top dose mostly 49.2 µM), for the others: top-dose activity change, negative = inhibition, usual class: inhibitors | 18,000 tested, 6.5% active | Marburg virus pseudotype entry/binding inhibition, cell-based; control for the full effect not named in the record; many of its hits are not listed in these tables; active means well fitted inhibition curve with a large enough effect; inconclusive means small, poorly fitted or top-dose-only effect; inactive means no such curve, though single readings can be large or run the other way; tested in HEK293 cells; note: luciferase read-out
Lassa entry: qHTS for Inhibitors of binding or entry into cells for Lassa Virus. Lassa virus pseudotyped entry inhibition, cell-based qHTS; control for the full effect not named in the record; many of its hits are not listed in these tables. Potency, µM (doses to about 49.2 µM), for the others: at the top dose activity change, negative = inhibition, actives largely listed as inhibitors. 18,000 tested, 4.1% active; active = well fitted inhibition curve with a large enough effect; inconclusive = small, poorly fitted or top-dose-only effect; inactive = no such curve, though single readings can be large or run the other way; tested in HEK293 cells; note: luciferase read-out
Numbers without * were called inactive; & = joins results of further samples; [ ] = dose if it differs, or a comment. % is set by controls: 0 for no effect and ±100 for the full control effect; potency is the fitted concentration of half-maximal effect. Compounds were not picked by outcome; overall some 7.3% were active at least once.

What do the screens show for `CC(C)(C)NCC(O)c1cc(Cl)c(N)c(C(F)(F)F)c1` (stereo unspecified)?
Marburg entry: 7.5%; Lassa entry: -13.0%

Results for O=S1(=O)CC(N2CCC(c3ccccc3)CC2)CN1Cc1ccc(F)cc1 (stereo unspecified) ?
Marburg entry: -21.8%; Lassa entry: inconclusive

How did COC(=O)C1=C(C)N(Cc2ccccc2)C(=S)NC1c1ccccc1 (stereo unspecified) do in these assays?
Marburg entry: 5.8%[8.59 µM]; Lassa entry: 0.1%[8.59 µM]

Results for COc1cc2c(cc1OC)-c1c(oc3cc(O)cc(O)c3c1=O)CO2 ?
Marburg entry: 89.6%[activator]; Lassa entry: 46.0%[activator]

What do the screens show for `Cc1ccc2nc(N3CCCCCC3)c(CN(CC3CCCO3)C(=O)c3cncs3)cc2c1` (stereo unspecified)?
Marburg entry: inconclusive; Lassa entry: -6.8%

Results for COC(=O)C1=C(C(=O)OC)[C@@H]2N(CC=C(C)C)c3ccccc3[C@@]23CCC(=O)N(CCc2ccccn2)C3=N1 ?
Marburg entry: 12.0%[8.59 µM]; Lassa entry: -28.4%[8.59 µM]

What do the screens show for `COc1ccc2c(c1)OC/C(=C/c1ccc(O)c(O)c1)C2=O`?
Marburg entry: inconclusive; Lassa entry: -28.0%

Results for N[C@@H](Cc1cc(CP(=O)(O)O)cc(-c2ccccc2Cl)c1)C(=O)O ?
Marburg entry: 9.1%&5.3%; Lassa entry: -0.1%&1.4%

Results for COc1cc2c(cc1OC)[C@@H]1O[C@](c3ccsc3)(C2)OC2=C1C(=O)CC(C)(C)C2 ?
Marburg entry: -12.1%[8.59 µM]; Lassa entry: -11.4%[8.59 µM]

How did CC(C)N1C[C@@H](Sc2ccccn2)C[C@H]1C(=O)Nc1ccc2c(c1)Nc1ccccc1CC2 do in these assays?
Marburg entry: -1.7%; Lassa entry: -21.1%

3 consecutive records already listed:
Results for N[C@@H](Cc1cc(CP(=O)(O)O)cc(-c2ccccc2Cl)c1)C(=O)O ?
Marburg entry: 9.1%&5.3%; Lassa entry: -0.1%&1.4%

Results for COc1cc2c(cc1OC)[C@@H]1O[C@](c3ccsc3)(C2)OC2=C1C(=O)CC(C)(C)C2 ?
Marburg entry: -12.1%[8.59 µM]; Lassa entry: -11.4%[8.59 µM]

How did CC(C)N1C[C@@H](Sc2ccccn2)C[C@H]1C(=O)Nc1ccc2c(c1)Nc1ccccc1CC2 do in these assays?
Marburg entry: -1.7%; Lassa entry: -21.1%

The list goes on.
How did COc1cc(OC)c2c(OC)c(-c3ccc4c(c3)OCO4)c(=O)oc2c1 do in these assays?
Marburg entry: 38.0%[activator]; Lassa entry: 25.9%

Results for CCCCC(=O)O[C@]1(C(=O)CO)CC[C@H]2[C@@H]3CCC4=CC(=O)CC[C@]4(C)[C@H]3[C@@H](O)C[C@@]21C ?
Marburg entry: -6.4%; Lassa entry: -14.0%

Results for NC[C@H]1O[C@H](O[C@H]2[C@H](O)[C@@H](O[C@H]3O[C@H](CO)[C@@H](O)[C@H](N)[C@H]3O)[C@H](N)C[C@@H]2N)[C@H](O)[C@@H](O)[C@@H]1O ?
Marburg entry: -8.9%[17.8 µM]; Lassa entry: -8.6%[17.8 µM]

What do the screens show for `COc1cc2c(cc1O)CC1c3c(cc(O)c(OC)c3-2)CCN1C` (stereo unspecified)?
Marburg entry: -20.7%&-3.2%; Lassa entry: 5.3%&-15.8%

How did COc1cccc(CN2CCC(n3cc(C(=O)N4CCCCC4)nn3)CC2)c1OC do in these assays?
Marburg entry: -11.4%; Lassa entry: -4.5%

How did CCCCC[C@H](O)/C=C/[C@@H]1[C@@H](C/C=C\CCCC(=O)O)[C@@H](O)C[C@@H]1O do in these assays?
Marburg entry: -9.0%&11.4%; Lassa entry: 8.0%&-13.1%

Results for COCOc1c2c(c(OCOC)c3c(OCOC)cccc13)/C(=N/NS(C)(=O)=O)C1=C2CCCC1 ?
Marburg entry: 8.0%; Lassa entry: 3.3%

What do the screens show for `O=C1C=C(c2ccccc2)CCC1`?
Marburg entry: 2.5%; Lassa entry: 8.1%

Results for COCc1c(C(=O)N2CCCCC2c2cccnc2)cnn1-c1ncc2c(n1)-c1ccccc1CCC2 (stereo unspecified) ?
Marburg entry: 67.9%[activator]; Lassa entry: inconclusive

What do the screens show for `CC1(C)OCC([C@H](O)C2=CCCCC2=O)CO1`?
Marburg entry: 16.6%; Lassa entry: -13.0%

How did CCCCCCCCCCCCCCCCOC[C@H](COP(=O)([O-])OCC[N+](C)(C)C)OC(=O)NC do in these assays?
Marburg entry: inconclusive; Lassa entry: 1.4%&2.1%

What do the screens show for `C[C@@]12C=Cc3occc3[C@H]1CC[C@@]13C[C@@H](CC[C@H]12)[C@@](O)(CO)C3`?
Marburg entry: -20.5%; Lassa entry: -1.1%

How did CCOC(=O)CN1C(=O)NC(c2cccc(C(F)(F)F)c2)C(C(=O)OC)=C1C (stereo unspecified) do in these assays?
Marburg entry: -11.4%[8.59 µM]; Lassa entry: -14.2%[8.59 µM]

Results for CC(C)(C)OC(=O)NCCCCC1=CC2=CC(=O)C(C)(OC(=O)C3CCCC3)C(=O)C2=CO1 (stereo unspecified) ?
Marburg entry: 8.3%; Lassa entry: -2.2%

Results for COc1ccc(/C=C/C(=O)c2cccs2)c(OC)c1 ?
Marburg entry: inconclusive; Lassa entry: -25.4%

What do the screens show for `Cn1cc(C(F)(F)F)nc1-c1ccc(OC[C@@H](O)CNCCOc2ccc(O)c(C(N)=O)c2)cc1`?
Marburg entry: 11.8%; Lassa entry: 4.5%

What do the screens show for `CC(=O)O[C@H]1C(=O)[C@@]2(C)C([C@H](OC(=O)c3ccccc3)[C@]3(O)C[C@H](OC(=O)[C@H](O)[C@@H](NC(=O)c4ccccc4)c4ccccc4)C(C)=C1C3(C)C)[C@]1(OC(C)=O)CO[C@@H]1C[C@@H]2OC(=O)[C@H](C)NC(=O)c1ccc(-c2c3ccc(=O)cc-3oc3cc(O)ccc23)c(C(=O)O)c1` (stereo partly specified)?
Marburg entry: inconclusive; Lassa entry: -9.9%[8.59 µM]

What do the screens show for `O=C(Cn1cc(COc2cc(F)cc(F)c2)nn1)c1ccc(O)cc1`?
Marburg entry: 30.0%; Lassa entry: -7.6%

What do the screens show for `CCC1(C2CCN(C(=O)c3ccccc3C(C)=O)CC2)NC(=O)N(CCc2scnc2C)C1=O` (stereo unspecified)?
Marburg entry: 12.2%; Lassa entry: 7.9%

What do the screens show for `CCN1CCCC1CNC(=O)c1cnn(-c2ncc3c(n2)-c2ccc(OC)cc2CC3)c1C1CC1` (stereo unspecified)?
Marburg entry: inconclusive; Lassa entry: -8.3%

How did C[C@@]12C=CC(=O)C=C1CC[C@H]1[C@H]3CC[C@](O)(C(=O)CO)[C@]3(C)CC(=O)[C@@H]12 do in these assays?
Marburg entry: 6.1%[17.8 µM]; Lassa entry: 19.0%[17.8 µM]

How did COc1ccccc1-n1cc(CN2CCC3(CCC(CNC(=O)c4ccccc4)O3)CC2)cn1 (stereo unspecified) do in these assays?
Marburg entry: -27.5%; Lassa entry: -9.9%

Results for COc1cc(OC)c2c(-c3cccc(-c4ccc(C#N)cc4)c3)cc(=O)oc2c1 ?
Marburg entry: inconclusive; Lassa entry: -6.7%

What do the screens show for `COc1cccc([C@@H]2Oc3ccc(Br)cc3C(=O)[C@H]2OC(=O)Nc2ccc(C)c(Br)c2)c1`?
Marburg entry: 1.1%; Lassa entry: 10.2%

How did CCC1C(=O)C[C@H]2CCN3C(=O)CCCC1C23 (stereo partly specified) do in these assays?
Marburg entry: 7.3%[107 µM]; Lassa entry: 4.6%[107 µM]

What do the screens show for `COC[C@H](NS(=O)(=O)c1ccc(Br)cc1F)[C@@H](O)c1ccccc1`?
Marburg entry: 5.4%; Lassa entry: 3.7%

Results for O=C(/C=C/c1ccc(F)cc1)NCC1Cc2cccc(-c3ncccn3)c2O1 (stereo unspecified) ?
Marburg entry: -12.9%; Lassa entry: 1.9%

Results for CCOC(=O)[C@@H]1CSCCS(=O)(=O)N1C(=O)[C@H](Cc1ccccc1)NC(=O)OC(C)(C)C ?
Marburg entry: -12.4%; Lassa entry: 25.3%

How did CC(C)N(C[C@@H]1CSCCS(=O)(=O)N1)C(C)C do in these assays?
Marburg entry: inconclusive; Lassa entry: -34.9%

Results for CCOC(=O)CNC(=O)O[C@@H]1C(=O)c2cc(OC)ccc2O[C@H]1c1ccc(OC)c(Br)c1 ?
Marburg entry: inconclusive; Lassa entry: -0.3%

How did CC1(OC(=O)c2cnc3ccccc3n2)C(=O)C=C2C=C3CCCN3C=C2C1=O (stereo unspecified) do in these assays?
Marburg entry: 1.7%[8.59 µM]; Lassa entry: 5.5%[8.59 µM]

What do the screens show for `CCC(=O)OC1(C)C(=O)C=C2C=C(c3ccsc3)OC=C2C1=O` (stereo unspecified)?
Marburg entry: inconclusive; Lassa entry: 15.7%

What do the screens show for `CC[C@H](C)[C@H](NC(=O)[C@@H](N)CCC(=O)O)C(=O)N[C@@H](CC(C)C)C(=O)N[C@@H](CC(=O)O)C(=O)N[C@H](C(=O)N1CCC[C@H]1C(=O)N[C@@H](CO)C(=O)N[C@H](C(=O)O)[C@@H](C)O)C(C)C`?
Marburg entry: -3.4%; Lassa entry: -17.7%

How did O=C(O)[C@@H]1CSCN1 do in these assays?
Marburg entry: 10.8%; Lassa entry: 11.3%

Results for COc1cc(O)c2c(=O)c(O)c(-c3ccc(O)c(O)c3)oc2c1 ?
Marburg entry: 12.6%&29.8%; Lassa entry: -2.4%&0.7%

How did CCCCC(CC)CCC(CC(C)C)OS(=O)(=O)O (stereo unspecified) do in these assays?
Marburg entry: -10.3%&-10.6%; Lassa entry: -13.2%&-9.0%

How did CC[C@H](C)[C@H](NC(=O)[C@H](Cc1cnc[nH]1)NC(=O)[C@@H](N)CCC(=O)O)C(=O)N1CCC[C@H]1C(=O)N[C@@H](C)C(=O)O do in these assays?
Marburg entry: 6.8%; Lassa entry: -2.9%

How did N=C(N)N1Cc2ccccc2C(O)C1 (stereo unspecified) do in these assays?
Marburg entry: 13.5%; Lassa entry: 0.2%

How did COC(=O)N1C(C)=Cc2ccccc2C1CC(C)=O (stereo unspecified) do in these assays?
Marburg entry: 0.7%; Lassa entry: -8.7%

How did O=C(NCC1Cc2cccc(-c3cnccn3)c2O1)c1ccc2c(c1)OCCO2 (stereo unspecified) do in these assays?
Marburg entry: 29.4%; Lassa entry: 32.3%[activator]

The closing 2 records of the section before come first, to join the parts.
How did COC(=O)N1C(C)=Cc2ccccc2C1CC(C)=O (stereo unspecified) do in these assays?
Marburg entry: 0.7%; Lassa entry: -8.7%

How did O=C(NCC1Cc2cccc(-c3cnccn3)c2O1)c1ccc2c(c1)OCCO2 (stereo unspecified) do in these assays?
Marburg entry: 29.4%; Lassa entry: 32.3%[activator]

Results for N#CCCS(=O)(=O)c1ccccc1 ?
Marburg entry: -8.8%; Lassa entry: -10.1%

Results for CCCCCCCCCCCCCCCCOCCOCCOCCOCCOCCOCCOCCOCCOCCOCCOCCOCCOCCOCCOCCOCCOCCOCCOCCOCCO ?
Marburg entry: inconclusive; Lassa entry: 15.8µM*

How did COC(=O)c1ccccc1-c1cc(C)cc2c1OC(CNC(=O)c1ccn(C)n1)C2 (stereo unspecified) do in these assays?
Marburg entry: inconclusive; Lassa entry: 0.4%

What do the screens show for `COC(=O)C12C[C@H](C)C3C(C)C(c4ccccc4C31)N2C(=O)C(F)(F)F` (stereo partly specified)?
Marburg entry: -25.2%[8.59 µM]; Lassa entry: 4.1%[8.59 µM]

Results for COc1ccc(CN2CCOc3ccc(CN4CCC(O)CC4)cc3C2)c(OC)c1OC ?
Marburg entry: inconclusive; Lassa entry: -7.9%

How did Cc1oc(-c2ccccc2NC(=O)c2ccsc2)nc1CN(C)CC1CC=CCC1 (stereo unspecified) do in these assays?
Marburg entry: -5.3%; Lassa entry: 2.4%

How did CN1[C@H](CC(=O)c2ccccc2)CCC[C@H]1C[C@H](O)c1ccccc1 do in these assays?
Marburg entry: inconclusive; Lassa entry: -13.5%

What do the screens show for `COc1ccc(-c2cccc(-c3cc(=O)oc4ccc(C(C)(C)C)cc34)c2)cc1`?
Marburg entry: -9.1%; Lassa entry: -17.1%

How did COC(=O)CCCC1=CC2=CC(=O)C(C)(OC(=O)c3cccs3)C(=O)C2=CN1C1CCCC1 (stereo unspecified) do in these assays?
Marburg entry: 43.8%[8.59 µM]; Lassa entry: 9.1%[8.59 µM]

What do the screens show for `O=C(CN1CCNCC1)NC1CCCCC1`?
Marburg entry: 0.5%; Lassa entry: -10.4%

Results for CCCCCCCCNCCS(=O)(=O)NCc1ccccc1 ?
Marburg entry: -22.8%; Lassa entry: 12.9%

How did CCCCCCC(=O)Cc1cc(OC)c(OC)cc1C=C(C(C)=O)C(=O)OC do in these assays?
Marburg entry: inconclusive; Lassa entry: 16.9%[8.59 µM]

Results for CC(C)NCC(O)COc1ccc(COCCOC(C)C)cc1 (stereo unspecified) ?
Marburg entry: 6.5%&4.7%; Lassa entry: -2.5%&-10.0%

What do the screens show for `C=CC1=C2C=C(C3CC3)N(C(CO)CO)C=C2C(=O)C(C)(OC(=O)c2ccco2)C1=O` (stereo unspecified)?
Marburg entry: -13.9%[8.59 µM]; Lassa entry: 4.3%[8.59 µM]

What do the screens show for `COc1ccccc1C1CN(CCNC(=O)[C@@H]2CSC(=O)N2)Cc2ccccc2O1` (stereo partly specified)?
Marburg entry: 3.7%; Lassa entry: -13.6%

How did Cc1ccc(CN2CCc3nnc(C(C)NC(=O)c4cc(F)ccc4F)n3CC2)o1 (stereo unspecified) do in these assays?
Marburg entry: 1.6%; Lassa entry: 2.3%

Compound activity from PubChem.
